# Screens as filed in PubChem BioAssay.
# MT1-MMP act inh: MT1-MMP (human) activation inhibition; P50281; HT1080 RFP-PRO-GFP cells, GFP/RFP ratio fluorescence, overnight; percent of plate control window, DMSO zero; GFP/RFP ratio change, % at 20 µM; actives 0.061% (n = 360,000); AID 651647;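 active = GFP/RFP ratio change of at least 30% with cell ATP level not reduced by more than half and red fluorescence within 50% of control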; note: strong numbers were not always called active
#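 Assay system: HT1080 cells carrying an RFP-PRO-GFP reporter | Dosing: Single dose of 20 µM compound, 1% DMSO final | Incubation: Cells overnight before dosing, compound overnight, 37 °C, 5% CO2 | Evaluation: GFP/RFP fluorescence ratio | Control set: DMSO and RFP-L50D-GFP cell wells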
# PABP FP inh: PABP-poly(A) binding inhibition; P11940; PABP-poly(A) RNA binding, fluorescence polarization; inhibition, % at 35 µM; actives 1% (n = 290,000);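 active = 50% or more with normal probe brightness, or confirmed in later tests; about a fifth of its hits are not listed in these tables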;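 note: calls also rest on retests at 20 µM and on dose response follow-up; controls were probe without protein and protein plus probe with vehicle; some compounds called inactive have numbers as strong as hits; many hits fall short of the cut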
# Rce1 inhib: inhibitors of yeast Ras-converting enzyme; yeast membranes, quenched prenylated peptide cleavage fluorescence; calls only; actives 0.27% (n = 290,000); AID 2563;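 active = fall in fluorescence gain of 50% or more versus controls, with final raw signal at or below 3038400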;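 note: plate controls were neutral control wells for no effect and wells lacking membranes for full effect; tested at 10 µM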
# Target sequence (Q03530 whole entry, looked up): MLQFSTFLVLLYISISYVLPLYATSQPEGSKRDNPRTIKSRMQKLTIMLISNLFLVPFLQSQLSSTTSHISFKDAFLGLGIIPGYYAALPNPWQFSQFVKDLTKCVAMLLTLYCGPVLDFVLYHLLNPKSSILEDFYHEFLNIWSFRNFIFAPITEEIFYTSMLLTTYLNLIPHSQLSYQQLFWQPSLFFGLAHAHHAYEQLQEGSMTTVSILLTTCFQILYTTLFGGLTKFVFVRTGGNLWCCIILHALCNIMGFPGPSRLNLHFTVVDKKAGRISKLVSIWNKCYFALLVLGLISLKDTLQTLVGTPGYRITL
# Yeast UUG start: modulators of start codon recognition fidelity in yeast; S. cerevisiae UUG-firefly luciferase reporter, luminescence/redox ratio; activity score, % at 18.7 µM; actives 0.13% (n = 350,000); AID 602363;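 active = replicate mean at a twofold rise or more, about +100% in these data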;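 note: firefly luciferase made from a UUG start codon reports start codon fidelity; reporter light over untreated wells divided by growth signal over untreated wells; some hits fall short of that in this replicate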
# CSC inhib: blocks cancer stem cells; cancer stem cell-like cells viability, luminescence; inhibition, % at 7.5 µM; actives 1.1% (n = 300,000); AID 2717;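 active = mean at 75% or more and at least half the replicates too; tested in HMLE shEcad cells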;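 note: 0% = median of negative and 100% = median of positive control wells; the first replicate is given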
# Env fusion inh: HIV envelope-mediated fusion inhibition. HeLa-JRFL Env/CEM21 cell fusion, luciferase. inhibition, % at 12.3 µM. actives 1.1% (n = 360,000). AID 651610;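 active = mean replicate inhibition score of at least 50 and every replicate individually at or above 50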;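 note: 0% = plate neutral controls and 100% = maraviroc near 300 nM; one replicate is shown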
# eIF4H inh: inhibitors of RNA binding by human eIF4H. Q15056. eIF4H fluorescence polarization binding assay. inhibition, % at 35 µM. actives 0.94% (n = 290,000). AID 2012;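 active = 50% or more with normal probe brightness, or confirmed in later tests; about a fifth of its hits are not listed in these tables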;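 note: calls also rest on retests at 20 µM and on dose response follow-up; 0% = protein and probe with vehicle and 100% = probe without protein; strong numbers were not always called active; many hits fall short of the cut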
# eIF4H inh retest: also measured in eIF4H inh; calls as there; inhibition, %; compound at 20 µM; confirmation average;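 mean of two retest wells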
# PABP FP inh retest: also measured in PABP FP inh; calls as there; inhibition, %; compound at 20 µM; confirmation repeats;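 mean of two retest wells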
# MT1-MMP act inh RFP: recorded beside MT1-MMP act inh, whose call it bears; RFP signal change, %; measured here: RFP expression control read;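 0 = vehicle wells; hits needed this value within 50% of zero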
# * marks the source's active call; other numbers are inactive results; i = inactive; / = no result given.
SMILES,MT1-MMP act inh,MT1-MMP act inh RFP,PABP FP inh,Rce1 inhib,Yeast UUG start,CSC inhib,Env fusion inh,eIF4H inh,others
CC(C)CCOc1cccc(OCC(=O)NC2CCS(=O)(=O)C2)c1 (centres undefined),1,-6,-10,i,-8,-2,-15,-6,
COC(=O)c1ccccc1S(=O)(=O)N(Cc1ccco1)Cc1cc2cc(OC)ccc2[nH]c1=O,-13,-12,-2,i,17,-1,1,-9,
O=C(N/N=C\c1ccc(Cl)s1)c1ccc(Cn2cccn2)o1,2,4,-2,i,/,3,/,0,
Cc1cc(C(=O)Nc2cccnc2)cs1,-6,5,-16,i,-11,34,9,6,
Cc1ccccc1-n1ncc2c1CC(C)(C)CC2NC(=O)CCCN1CCCC1=O (centres undefined),-1,0,-7,i,17,-7,-21,-4,
Cc1cccc(NC(=O)CSCc2cc(=O)n3c(C)csc3n2)c1C,-2,3,6,i,-12,-3,-27,-11,
NS(=O)(=O)c1ccc(CNC(=O)c2ccc3ccccc3n2)cc1,1,-2,-4,i,-15,9,1,1,
O=C1CC(C(=O)Nc2ccccc2)S/C(=N\N=C\c2ccco2)N1 (centres undefined),4,3,-11,i,-14,/,/,1,
COCCNC(=S)N(CCc1c(C)[nH]c2ccc(C)cc12)Cc1ccco1,-5,-10,19,i,/,-3,13,-11,
COc1ccc(/C=C2\Sc3ccc(C(=O)NCc4cccnc4)cc3N(C)C2=O)cc1OC,-1,-11,-4,i,-22,31,8,-3,
CC1CCCC(NC(=O)c2ccc3c(=O)n(CC4CCCO4)c(=O)[nH]c3c2)C1C (centres undefined),5,4,-11,i,-17,6,3,-4,
C=CCNC(=S)Nc1ccc(Cl)cc1F,4,-9,-5,i,/,-5,-15,-13,

# Retrieved by structure from the entries so far (3):
SMILES,MT1-MMP act inh,MT1-MMP act inh RFP,PABP FP inh,Rce1 inhib,Yeast UUG start,CSC inhib,Env fusion inh,eIF4H inh,others
O=C1CC(C(=O)Nc2ccccc2)S/C(=N\N=C\c2ccco2)N1 (centres undefined),4,3,-11,i,-14,/,/,1,
COCCNC(=S)N(CCc1c(C)[nH]c2ccc(C)cc12)Cc1ccco1,-5,-10,19,i,/,-3,13,-11,
COc1ccc(/C=C2\Sc3ccc(C(=O)NCc4cccnc4)cc3N(C)C2=O)cc1OC,-1,-11,-4,i,-22,31,8,-3,

# More compounds.
SMILES,MT1-MMP act inh,MT1-MMP act inh RFP,PABP FP inh,Rce1 inhib,Yeast UUG start,CSC inhib,Env fusion inh,eIF4H inh,others
CCN(CC)CCCNC(=O)CCC(=O)NNc1nc2ccccc2c2nc(C)nn12,1,2,-1,i,/,4,10,-2,
O=C(Nc1ccc(F)c(F)c1)c1oc2ccccc2c1NC(=O)C1CCCO1 (centres undefined),4,-6,4,i,/,-1,-11,0,
CCOC(=O)c1nnn(-c2nonc2N)c1CN1CCc2ccccc2C1,-1,4,6,i,2,-18,-89,-6,
CC(C)(C)C1CCc2[nH]c3ccccc3c(=O)c2C1 (centres undefined),13,5,-1,i,-14,13,/,5,
CCOC(=O)C1(Cc2ccc(OC)cc2)CCN(C(=O)C2=CCCC2)CC1,-1,-2,-6,i,14,5,4,-10,
N#CCCN1CCNCC1,2,2,-9,i,-18,-7,/,-6,
CC1CCN(C(=O)c2ccc(NS(C)(=O)=O)cc2)CC1,-6,0,-5,i,-6,18,-43,0,
NC(=O)[C@H]1CC2(CC(c3cccc(NC(=O)COc4ccc(Cl)cc4)c3)=NO2)CN1C(=O)CC(c1ccccc1)c1ccccc1 (some centres undefined),5,-5,10,i,-11,-8,-16,-26,
O=C(O)c1cc(Cl)ccc1OS(=O)(=O)c1ccc(Cl)s1,6,7,/,/,-32,-7,-3,/,
CC(C)C(=O)NCC(c1cccs1)S(=O)(=O)c1ccc(F)cc1 (centres undefined),1,1,/,i,4,-1,0,/,
NC(Cc1ccccc1)c1csc(NC(=O)c2cccc(OC(F)(F)F)c2)n1 (centres undefined),5,3,/,/,3,/,-17,/,
Cc1c(Cl)cccc1NC(=O)Nc1cccnc1,2,1,-6,i,-9,-13,1,3,
S=C(Nc1ccccc1)N1CCn2c1nc1ccccc12,4,0,-9,i,-18,-7,/,0,
O=C(CSc1nc(-c2ccc(F)cc2)nc2c1Cc1ccccc1O2)Nc1ccc(C(=O)O)cc1,-1,4,-2,/,/,/,2,91,eIF4H inh retest=5;PABP FP inh retest=-5
CC(=O)Nc1ccc(S(=O)(=O)N2CCC(C(=O)NCCC(=O)NCc3ccccc3)CC2)cc1,2,4,-11,i,2,-7,0,1,
O=C(CSc1nncn1-c1ccccc1)NC1CCCCC1,0,0,1,i,37,16,2,3,
O=c1cnnc(Nc2cccc(C(F)(F)F)c2)[nH]1,4,-1,-5,i,/,23,2,3,
CN(C)C(CNC(=O)C1CCCN1C(=O)c1cccs1)c1ccccc1 (centres undefined),-1,-2,/,/,-10,-16,-8,/,
O=C(NN1C(=O)C2C3C=CC(C3)C2C1=O)C(O)c1ccccc1 (centres undefined),4,-1,-3,i,/,16,2,-4,
COc1cc(C)c(NC(=O)Cc2ccsc2)cc1OC,0,0,6,i,-7,-5,-11,-1,
Cn1c(=NC(=O)CCS(=O)(=O)c2ccccc2)sc2cc(F)ccc21,-2,0,/,i,-8,0,-18,/,
CCOc1ccc(S(=O)(=O)N2CCOCC2)cc1[N+](=O)[O-],4,3,6,i,/,1,-2,1,
COc1ccc(S(=O)(=O)N(C)C[C@H]2Oc3ccc(NS(=O)(=O)c4ccc(F)cc4)cc3C(=O)N([C@H](C)CO)C[C@@H]2C)cc1,0,-2,/,/,2,-8,-30,/,
O=C(NCc1ccccc1)C(=O)NCC1OCCN1S(=O)(=O)c1ccc2c(c1)OCCO2 (centres undefined),6,2,6,i,-16,-1,/,9,
CS(=O)(=O)N1CCCC(C(=O)Nc2ccccc2F)C1 (centres undefined),1,0,9,i,-19,-2,5,-6,
Cc1c(NC(=O)C(CC(=O)O)NCc2ccco2)c(=O)n(-c2ccccc2)n1C (centres undefined),3,8,-2,i,/,/,/,-4,
Cc1ccc(C)c(NS(=O)(=O)c2ccc(-c3ccc(=O)[nH]n3)o2)c1,3,1,2,i,-5,-1,-13,-17,
C=CCOC(=O)C1=C(C)NC(=O)NC1/C=C/c1ccccc1 (centres undefined),2,-1,8,i,-6,1,/,-4,
N#Cc1cc(S(=O)(=O)N2CCOCC2)ccc1N1CCOCC1,5,5,0,/,-1,3,-48,-12,
COc1cc(C)c(S(=O)(=O)NCCCn2ccnc2)cc1C,0,1,-2,i,7,-11,-5,-3,
Cc1cc(OCc2cc(C(=O)NCc3cc(C(C)C)no3)no2)cc(C)c1Cl,-2,-3,0,i,-23,-2,-49,-9,
Cc1cc(C(=O)N/N=C/c2c(C)nn(-c3ccccc3)c2C)n[nH]1,5,-1,-1,i,-21,3,-5,10,
CCn1c(-c2ccc(Cl)cc2)n[nH]c1=S,10,8,-4,i,-19,-9,61*,-15,
COc1ccc(CNS(=O)(=O)CCNC(=O)c2cccc(OC)c2)cc1,0,0,/,i,2,-6,/,/,
Cc1nc2c(c(C)nn2-c2ccccc2)c(C)c1C,-3,-2,/,i,/,0,0,/,
CC(O)CNc1nc2ccccc2n1CC(=O)NC12CC3CC(CC(C3)C1)C2 (centres undefined),-2,-2,-5,i,/,-1,3,-1,

# An excerpt from above in order of formula weight, largest number first:
SMILES,MT1-MMP act inh,MT1-MMP act inh RFP,PABP FP inh,Rce1 inhib,Yeast UUG start,CSC inhib,Env fusion inh,eIF4H inh,others
O=C(NCc1ccccc1)C(=O)NCC1OCCN1S(=O)(=O)c1ccc2c(c1)OCCO2 (centres undefined),6,2,6,i,-16,-1,/,9,
Cc1cc(OCc2cc(C(=O)NCc3cc(C(C)C)no3)no2)cc(C)c1Cl,-2,-3,0,i,-23,-2,-49,-9,
Cc1c(NC(=O)C(CC(=O)O)NCc2ccco2)c(=O)n(-c2ccccc2)n1C (centres undefined),3,8,-2,i,/,/,/,-4,
CC(O)CNc1nc2ccccc2n1CC(=O)NC12CC3CC(CC(C3)C1)C2 (centres undefined),-2,-2,-5,i,/,-1,3,-1,
COc1ccc(CNS(=O)(=O)CCNC(=O)c2cccc(OC)c2)cc1,0,0,/,i,2,-6,/,/,
CN(C)C(CNC(=O)C1CCCN1C(=O)c1cccs1)c1ccccc1 (centres undefined),-1,-2,/,/,-10,-16,-8,/,
Cc1ccc(C)c(NS(=O)(=O)c2ccc(-c3ccc(=O)[nH]n3)o2)c1,3,1,2,i,-5,-1,-13,-17,
N#Cc1cc(S(=O)(=O)N2CCOCC2)ccc1N1CCOCC1,5,5,0,/,-1,3,-48,-12,
COc1cc(C)c(S(=O)(=O)NCCCn2ccnc2)cc1C,0,1,-2,i,7,-11,-5,-3,
Cc1cc(C(=O)N/N=C/c2c(C)nn(-c3ccccc3)c2C)n[nH]1,5,-1,-1,i,-21,3,-5,10,
CCOc1ccc(S(=O)(=O)N2CCOCC2)cc1[N+](=O)[O-],4,3,6,i,/,1,-2,1,
O=C(NN1C(=O)C2C3C=CC(C3)C2C1=O)C(O)c1ccccc1 (centres undefined),4,-1,-3,i,/,16,2,-4,
CS(=O)(=O)N1CCCC(C(=O)Nc2ccccc2F)C1 (centres undefined),1,0,9,i,-19,-2,5,-6,
C=CCOC(=O)C1=C(C)NC(=O)NC1/C=C/c1ccccc1 (centres undefined),2,-1,8,i,-6,1,/,-4,
Cc1nc2c(c(C)nn2-c2ccccc2)c(C)c1C,-3,-2,/,i,/,0,0,/,
CCn1c(-c2ccc(Cl)cc2)n[nH]c1=S,10,8,-4,i,-19,-9,61*,-15,

# Other records.
SMILES,MT1-MMP act inh,MT1-MMP act inh RFP,PABP FP inh,Rce1 inhib,Yeast UUG start,CSC inhib,Env fusion inh,eIF4H inh,others
CCN(CC)C(=O)c1sc(N)c(C#N)c1C,-2,-2,2,i,-9,-19,/,-7,
COC(=O)c1ccc(N(CC(=O)NC2CCCC2)C(=O)c2ccc(C)s2)cc1,2,2,5,i,-4,-2,-9,13,
COC(=O)CCC(=O)Nc1ccc(S(=O)(=O)Nc2nc(C)cc(C)n2)cc1,-1,4,-12,i,-9,-28,4,-1,
CC(=O)c1ccc(NC(=O)CCNS(=O)(=O)c2cccc3nonc23)cc1,-4,-2,19,i,10,-18,-15,0,
COc1ccc(CN2CCCC(N3CCN(c4ccc(OC)cc4)CC3)C2)cc1 (centres undefined),5,2,6,i,-14,9,-1,3,
COc1ccc(C(=O)Nc2cc(OC)c(NC(=O)c3ccco3)cc2OC)cc1,13,4,1,i,/,-8,-10,-2,
Cc1ccc(NC(=O)Cc2nc(COC(=O)c3c(F)cccc3Cl)cs2)cc1,-1,-4,/,/,2,-3,-3,/,
CCCCn1c(NCc2ccccc2NS(=O)(=O)c2ccc(C)cc2)nc2ccccc21,-4,-12,-6,i,0,21,/,2,
COc1cc(NS(=O)(=O)c2ccc(NC(=O)CCC(=O)O)cc2)nc(OC)n1,-1,0,1,i,-1,-5,-16,2,
O=C(CCN1C(=O)c2ccccc2S1(=O)=O)Nc1ccc(F)c([N+](=O)[O-])c1,-2,0,/,i,-4,-11,7,/,
CCNC(=S)N(Cc1ccc2c(c1)OCO2)C1CC(=O)N(c2ccc(F)cc2)C1=O (centres undefined),3,-4,-1,i,/,9,/,-4,
O=S(=O)(NC1CCCC1)c1ccccc1Cl,1,4,9,/,0,-8,25,-7,
Cc1c(N(C)S(=O)(=O)c2cc(C(=O)NCC3CCCO3)ccc2Cl)c(=O)n(-c2ccccc2)n1C (centres undefined),0,1,/,i,-10,-3,/,/,
CCOc1ccc(-c2nc(C#N)c(N3CCOCC3)o2)cc1,0,-1,6,i,-10,-6,2,-4,
CCN(CC)CCNC(=O)c1ccccn1,2,-1,-2,i,-15,-5,/,3,

# Rows were taken by chance; 3% or so of the library scored in one or more.
